Bioassay records as filed in PubChem BioAssay.
Arbovirus inh – blocks arbovirus infection; arbovirus infection cell-based antiviral screen; inhibition, % at 10 µM; 200,000 tested, 0.37% active; AID 1251;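 active means inhibition from about 30%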;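 further: bluetongue infection of BSR cells; cell survival read as ATP light after 72 h; 0% = infected wells without compound and 100% = uninfected wells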
RecA intein inh – Mtb RecA intein splicing inhibition | P9WHJ3 | inhibition, %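 (about 9 µM by stock and volumes)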 | 290,000 tested, 0.75% active | cell-free RecA intein splicing, fluorescence; in the data active means inhibition above about 30%; inconclusive means no clear call, values can overlap the other calls;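 further: 0% = vehicle wells and 100% = reference inhibitor control wells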
Target sequence (P9WHJ3 whole entry, looked up): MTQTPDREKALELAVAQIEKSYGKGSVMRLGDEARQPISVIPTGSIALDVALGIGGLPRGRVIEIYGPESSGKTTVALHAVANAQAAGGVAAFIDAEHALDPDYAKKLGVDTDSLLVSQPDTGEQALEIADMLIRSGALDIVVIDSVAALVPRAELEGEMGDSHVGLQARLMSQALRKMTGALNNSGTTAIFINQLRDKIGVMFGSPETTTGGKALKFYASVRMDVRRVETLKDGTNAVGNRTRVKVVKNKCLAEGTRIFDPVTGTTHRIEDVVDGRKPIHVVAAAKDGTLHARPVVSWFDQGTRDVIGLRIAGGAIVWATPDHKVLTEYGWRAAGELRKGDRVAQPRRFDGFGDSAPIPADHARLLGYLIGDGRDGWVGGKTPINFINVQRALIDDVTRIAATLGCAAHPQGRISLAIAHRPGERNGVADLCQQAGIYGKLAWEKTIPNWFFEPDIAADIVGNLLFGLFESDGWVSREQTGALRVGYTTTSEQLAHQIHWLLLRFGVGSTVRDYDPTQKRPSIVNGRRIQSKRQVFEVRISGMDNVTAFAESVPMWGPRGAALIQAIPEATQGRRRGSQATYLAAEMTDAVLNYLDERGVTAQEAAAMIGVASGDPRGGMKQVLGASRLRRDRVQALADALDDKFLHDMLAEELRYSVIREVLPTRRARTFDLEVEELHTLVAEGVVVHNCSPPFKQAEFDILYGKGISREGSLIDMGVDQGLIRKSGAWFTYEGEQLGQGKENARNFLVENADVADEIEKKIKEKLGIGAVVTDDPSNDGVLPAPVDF
Mtb growth – M. tuberculosis H37Rv growth inhibitors, H37Rv strain (AID 1626); M. tuberculosis H37Rv growth inhibition; higher % means a stronger effect; inhibition, % at 10 µM; hits with a dose series show IC50 in µM; 220,000 tested, 0.95% active;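 active means confirmed in a dose series; inconclusive means inhibition above 80% but not taken into the dose series; inactive means below 80% or under 30% at every dose of the series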;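 further: bacteria incubated seven days before Alamar blue readout; 0% = bacteria only wells and 100% = bacteria with antibiotic wells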
Mtb betalactam – beta-lactam sensitization of Mtb H37Rv | M. tuberculosis H37Rv growth with meropenem, percent inhibition; hits of this screen are not shown here | inhibition, % at 25 µM | 330,000 tested, 0.27% active;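 active means about 74% or more and at least 40 points above the plate without the antibiotic, then above 30% in a dose series; inconclusive means first-round hits that could not be retested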;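 further: growth measured after seven days incubation then overnight dye step; 0% = bacteria only wells and 100% = bacteria with antibiotic; twin plates without the antibiotic show which effects depend on it; some results filed as inactive read as strong as hits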
YopH PTP inh – YopH (Yersinia) phosphatase inhibition; AID 898; fluorescence Ex485/Em525; 140,000 tested, 0.16% active; inhibition, %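 (about 10 µM by stock and volumes)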;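 active means inhibition of 50% or more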;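 further: controls were vehicle for no effect and minimum signal wells for full effect; inactives centre near -20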
Arbovirus inh repeat – second read-out of Arbovirus inh, no call of its own (marks repeat the call); inhibition, %; measured here: 10K subset replicate screen; many hits read low in the repeat;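 first of two repeat runs on a subset; 0% = infected and 100% = uninfected wells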
Numbers without * were called inactive; i = inactive; ? = inconclusive; / = no result given. The list is partial; count on the stated rates, not on these rows.

SMILES | Arbovirus inh | RecA intein inh | Mtb growth | Mtb betalactam | YopH PTP inh | others
CCCc1cc(C(=O)Nc2ccccc2SC)no1 | -3 | 3.8 | ? | 98 | 12 | Arbovirus inh repeat=0
O=C(CSc1ccc(-c2ccco2)nn1)NCc1ccccc1 | -2 | 0.6 | -6% | 1 | -28
O=C1CN(C(=O)COC(=O)c2cccc(S(=O)(=O)NCc3ccccc3)c2)c2ccccc2N1 | -2 | 2.2 | 2% | -7 | -22
CCOC(=O)c1nc2sc(C)c(C)c2c(=O)[nH]1 | -3 | -4.1 | -6% | 0 | -59
C=CCn1c(SCC(=O)N(C)C2CCS(=O)(=O)C2)nnc1-c1ccncc1 (stereo not given) | -1 | -0.9 | / | -9 | -14
Cc1ccc(OCC(=O)N2N=C(c3ccncc3)CC2(O)C(F)(F)F)cc1C (stereo not given) | / | 0.7 | 1% | 4 | /
Cc1cc(=O)[nH]c(SCC(=O)c2ccc(C)c(C)c2)n1 | 4 | -1.6 | -5% | -6 | -34
C=CCOc1ccc(NC(=O)C(=O)NCCCn2ccnc2)cc1 | -8 | -3.5 | -6% | 16 | -48
CC(Sc1ncc(C#N)c(N)n1)C(=O)Nc1ccccc1 (stereo not given) | 8 | -2.5 | -5% | 4 | -51
CC(=O)N1CCCN(Cc2cn(-c3ccc(C)cc3)nc2-c2cccc(C)c2)CC1 | -2 | 4.5 | -1% | 14 | /
COc1ccsc1C(=O)Nc1ccc(F)cc1F | -6 | 2.7 | 5% | -1 | /
Cc1ccc(NC(=O)Cn2nnc3ccccc3c2=O)cc1C | 0 | -1.7 | 4% | 2 | /
COC(=O)c1ccc(NC(=O)N(c2ccccc2)c2ccccc2)cc1 | / | 1.1 | / | -1 | /
O=C(Nc1ccc(S(=O)(=O)Nc2nccs2)cc1)C(F)(F)F | / | 1.3 | / | 96 | /
CN1CCN(Cc2nc3c(c(=O)n(C)c(=O)n3C)n2Cc2cccc3ccccc23)CC1 | -19 | -1.1 | 13% | / | 10
Cc1ccccc1N(CC(=O)NC1CCCCC1)C(=O)CNC(=O)c1cccs1 | / | -2.9 | / | 0 | /
COC(=O)c1ccc(OC)c(CSc2nnc(COc3ccccc3)o2)c1 | 9 | 2.7 | 1% | 23 | -6
CCN1CCN(C(=O)COc2ccc(S(=O)(=O)N3CCOCC3)cc2C)CC1 | / | -0.5 | / | 1 | /
O=C1CCCC/C1=C/NCc1ccccc1 | 1 | -1.8 | 0% | 2 | /
S=c1[nH]nc(-c2ccco2)n1-c1ccccc1Cl | 5 | 0.0 | 0% | 5 | /

Of the compounds above, these have four or more nitrogen atoms:
SMILES | Arbovirus inh | RecA intein inh | Mtb growth | Mtb betalactam | YopH PTP inh | others
C=CCn1c(SCC(=O)N(C)C2CCS(=O)(=O)C2)nnc1-c1ccncc1 (stereo not given) | -1 | -0.9 | / | -9 | -14
C=CCOc1ccc(NC(=O)C(=O)NCCCn2ccnc2)cc1 | -8 | -3.5 | -6% | 16 | -48
CC(Sc1ncc(C#N)c(N)n1)C(=O)Nc1ccccc1 (stereo not given) | 8 | -2.5 | -5% | 4 | -51
CC(=O)N1CCCN(Cc2cn(-c3ccc(C)cc3)nc2-c2cccc(C)c2)CC1 | -2 | 4.5 | -1% | 14 | /
Cc1ccc(NC(=O)Cn2nnc3ccccc3c2=O)cc1C | 0 | -1.7 | 4% | 2 | /
CN1CCN(Cc2nc3c(c(=O)n(C)c(=O)n3C)n2Cc2cccc3ccccc23)CC1 | -19 | -1.1 | 13% | / | 10

Later entries:
SMILES | Arbovirus inh | RecA intein inh | Mtb growth | Mtb betalactam | YopH PTP inh | others
CC(=O)Nc1ccc(N/C=C(\C#N)S(=O)(=O)c2ccc(Cl)cc2)cc1 | / | 2.0 | / | -2 | /
CCSc1nnc(NC(=O)[C@H](C)NC(=O)c2ccccc2Cl)s1 | 5 | -1.1 | -8% | -3 | /
Cc1ccc(CNC(=O)C(NS(=O)(=O)c2cccc3nsnc23)c2ccccc2)cc1 (stereo not given) | -4 | -2.6 | -2% | 2 | -14
Cc1ccc2c(c1)nc(-n1nc(C)cc1C)c1nnnn12 | 9 | -1.1 | -2% | 4 | /
CCCNC(=O)C1CC(=O)N(c2ccc(OCc3ccc(F)cc3)cc2)C1 (stereo not given) | / | -0.4 | / | -5 | /
Cn1c(=O)c2c(nc(SCc3nn[nH]n3)n2Cc2ccccc2F)n(C)c1=O | -1 | -3.0 | -11% | / | -29
CC(C)(C)C1CCC(C(=O)OCC(=O)c2ccc[nH]2)CC1 (stereo not given) | 0 | -0.4 | -10% | 3 | -10
CCOc1ncccc1C(=O)OCCN1C(=O)c2ccccc2C1=O | 5 | -2.1 | -3% | -2 | -22
C[C@H](NC(=O)OCc1ccccc1)c1nnc([C@H](C)NC(=O)OCc2ccccc2)o1 | / | 0.6 | 4% | -7 | /
Cc1cccc(/C(N)=N/OC(=O)c2cccs2)c1 | -4 | 6.0 | -5% | 0 | -32
CCNC(=O)c1cc2c(=O)n3cccc(C)c3nc2n(CCc2ccccc2)c1=N | -29 | i | -4% | 1 | -14
CC(C)(C)c1ccc(C(=O)NN=C2CCCC2)cc1 | / | 1.3 | / | 3 | /
OC(c1ccccc1)(c1ccccc1)C1CCCN1 (stereo not given) | -1 | / | 1% | -2 | -21
O=C(NC(Cc1ccccc1)c1nc2ccccc2[nH]1)c1ccc(Cl)c([N+](=O)[O-])c1 (stereo not given) | -31 | 5.3 | 9% | -5 | -8
CCCn1cc(S(=O)(=O)c2ccc(OC)cc2)c(=O)c2cc(OC)ccc21 | / | 15 | / | ? | /
Cc1cc(C)c(OCCCCN(C)C)c(Br)c1 | -10 | -1.5 | -2% | -8 | /
Cc1ccc(C)c(N2N=C(C(=O)OCc3nnc(-c4ccccc4)o3)CCC2=O)c1 | / | 1.0 | / | -2 | /
CCC1CN(C(=O)N2CCC(C(=O)NCc3ccco3)CC2)c2cc(C)ccc2O1 (stereo not given) | / | -2.3 | / | -3 | /
CCC(C)C(NC=C1C(=O)OC(C)(C)OC1=O)C(=O)O (stereo not given) | 0 | 3.4 | 0% | 1 | -13
COc1cccc2c(=O)n(CC(=O)Nc3cccc(F)c3)ccc12 | 2 | -0.7 | 0% | 2 | -36

Part of the list above in order of molecular weight, ascending.
SMILES | Arbovirus inh | RecA intein inh | Mtb growth | Mtb betalactam | YopH PTP inh | others
CC(C)(C)c1ccc(C(=O)NN=C2CCCC2)cc1 | / | 1.3 | / | 3 | /
CCC(C)C(NC=C1C(=O)OC(C)(C)OC1=O)C(=O)O (stereo not given) | 0 | 3.4 | 0% | 1 | -13
Cc1ccc(CNC(=O)C(NS(=O)(=O)c2cccc3nsnc23)c2ccccc2)cc1 (stereo not given) | -4 | -2.6 | -2% | 2 | -14

(further entries)
SMILES | Arbovirus inh | RecA intein inh | Mtb growth | Mtb betalactam | YopH PTP inh | others
CCOC(=O)C1=C(O)/C(=C/c2ccc(-c3ccccc3C(=O)O)o2)SC1=Nc1ccc(OC)cc1 | 0 | / | 3% | / | -23
CCN1CCc2nc(SCC(=O)Nc3ccc(OC)cc3)c(C#N)cc2C1 | 0 | / | -14% | -5 | 2
CCN(Cc1nc2ccccc2n1C)c1ccccc1 | / | 2.9 | / | 3 | /
Cc1c(N/C(=N/S(=O)(=O)c2ccc(Cl)cc2)c2ccccc2)c(=O)n(-c2ccccc2)n1C | 1 | 2.1 | 3% | -4 | -33
O=C(NCc1ccc(F)cc1)C(Cc1ccccc1)NS(=O)(=O)c1cccs1 (stereo not given) | -1 | -2.2 | -3% | 1 | -13
CCCCOc1ccc(OC(=O)c2cccnc2)cc1 | -22 | 3.8 | 7% | 91 | -12
O=C(O)c1ccccc1SCc1csc(-c2ccccc2)n1 | / | -3.7 | / | -5 | /
Cc1cccc(-n2ccc(=O)c(C(=O)O)n2)c1 | / | -0.1 | / | -9 | /
O=C(O)[C@H]1CCCC[C@H]1C(=O)Nc1ccc(Nc2ccccc2)cc1 | -11 | -2.9 | 3% | 0 | -16
COc1ccc(Cn2c(O)c(/C=C3/C=CC=N3)c(=O)[nH]c2=O)cc1 | / | 2.6 | 0.27µM* | 100 | /
COc1ccc(Cc2noc(-c3ccc(OC)c(OC)c3)n2)cc1OC | 2 | -0.3 | -11% | 6 | -52
Cc1nc2sccn2c(=O)c1S(=O)(=O)Nc1ccc(N2CCN(C)CC2)cc1 | / | -0.6 | / | -3 | /
O=C(CC1C(=O)NCCN1Cc1cccc(F)c1)NCCCOc1cccnc1 (stereo not given) | / | 0.8 | / | 4 | /
CCOC(=O)C(CC(=O)Nc1nc(C(C)=O)c(C)s1)C(C)c1ccccc1 (stereo not given) | / | -0.8 | / | -2 | /
Cc1cccc(C)c1NC(=S)N/N=C1\CC2CC=CC12 (stereo not given) | -3 | -0.5 | 5% | 14 | /
Cc1ccc(S(=O)(=O)c2nnn(-c3cccc(F)c3)c2N)cc1 | -2 | -0.4 | -4% | -10 | /
COC(=O)c1ccc(Oc2cc(C)nc(NCc3ccccc3)n2)cc1 | 0 | 3.6 | 9% | 0 | -43
CN(/N=C/c1ccc(N(C)C)cc1)C1=NS(=O)(=O)c2ccccc21 | / | -3.2 | / | 4 | /
COCCCNC(=O)CC1Oc2ccccc2NC1=O (stereo not given) | 0 | -0.4 | -5% | 2 | -23 | Arbovirus inh repeat=5
Cc1ccc(NC(=O)c2cnn(-c3ccccc3)c2NC(=O)c2ccco2)cc1C | -9 | 0.8 | 6% | -3 | -9
O=C(N/N=C/c1ccncc1)c1ccc(-n2cccc2)cc1 | 0 | -2.6 | 1% | 1 | -7
O=C(O)C1CC=CCC1C(=O)NCc1cn2ccccc2n1 (stereo not given) | 5 | 0.6 | 3% | -2 | -35 | Arbovirus inh repeat=2
CCn1nnnc1-c1ccc(OC)c(S(=O)(=O)Nc2ccc(S(N)(=O)=O)cc2)c1 | 6 | 2.1 | -6% | -3 | /
CS/C(=N\S(=O)(=O)c1cccs1)Nc1ccc(F)cc1 | -7 | 1.4 | -2% | -1 | -17
Cc1ccccc1CN1C(=O)c2ccccc2Sc2ccc(C(=O)O)cc21 | 8 | -2.9 | -2% | 2 | /
O=C(N/N=C/c1ccc(N2CCOCC2)o1)c1ccccc1[N+](=O)[O-] | 5 | -3.6 | -8% | -1 | -19
O=C(Nc1ccc(N2CCOCC2)cc1)c1ccccc1SCC(=O)N1CCCC1 | 5 | -1.4 | -11% | -9 | /
COc1ccccc1OCc1nc(C#N)c(N2CCC(C(N)=O)CC2)o1 | 3 | 0.6 | -11% | -8 | -44
COCCCNCCCCOc1c(Cl)cc(C)cc1Br | -11 | 1.0 | 7% | 9 | -10
Cc1ccc(-n2c(=O)c3sccc3n(CC(=O)NCc3ccco3)c2=O)cc1 | 6 | 0.2 | -12% | -17 | -21
CCOC(=O)C1=C(C)OC(N)=C(C#N)C1c1ccc(OC)c(CSc2ccccn2)c1 (stereo not given) | 2 | 5.0 | 6% | 7 | -13
CC(=O)Nc1cccc(/C(C)=N/NC(=O)c2cccs2)c1 | -8 | / | -1% | 7 | -13
CC(C)n1c(C(=O)OCC(=O)NCc2ccc3c(c2)OCO3)cc2sccc21 | -8 | 13 | 6% | 10 | -62 | Arbovirus inh repeat=-17
O=C1CCCCCN1C(=O)c1ccc(C(=O)N2CCCCCC2=O)cc1 | 4 | 0.3 | 0% | -5 | -31
COc1ccccc1CNC(=O)c1cc(C(C)=O)c[nH]1 | / | 1.0 | / | -1 | /
CC1=NN(c2ccc(Cl)cc2)C(=O)C1C(c1ccccc1O)c1c(C)[nH]n(-c2ccc(Cl)cc2)c1=O (stereo not given) | 5 | 26 | ? | 21 | -18
COc1ccc(OC)c(-c2cc(C(=O)N/N=C/c3cc(OC)c(OC)cc3OC)c3ccccc3n2)c1 | / | -18 | / | 1 | /
O=C(O)c1ccc2c(c1)c1c3n2CCNC3CCC1 (stereo not given) | / | -0.2 | / | 1 | /
CC(C(=O)N1CCN(Cc2ccc3c(c2)OCO3)CC1)n1cc([N+](=O)[O-])cn1 (stereo not given) | / | 0.5 | / | 3 | /
CC(=O)Nc1ccc(NC(=O)c2ccc3c(c2)CCN3S(C)(=O)=O)cc1 | / | 3.7 | / | 0 | /
CC(C)(C)c1ccc(OCc2ccc(C(=O)NCc3cccnc3)o2)cc1 | 0 | 5.8 | 6% | -7 | /
CCN1C(=O)N[C@H](c2ccc(Br)cc2)C(C(=O)OC)=C1C | / | 2.6 | 0% | -2 | /
NS(=O)(=O)c1cc(C(=O)N2CCc3ccccc32)c(Cl)cc1Cl | 12 | / | -1% | -15 | -29
COc1cccc(CN2CCC(CO)(CC3CCCCO3)CC2)c1 (stereo not given) | -3 | 0.3 | -5% | -7 | /
Cc1ccc(C(=O)Nc2ccc(Oc3ccc(C(=O)O)c(C(=O)O)c3)cc2)cc1C | -8 | 0.1 | 0% | 15 | -43
CCC1CCC/C1=N\NC(=O)CCC(=O)Nc1ccccc1Cl (stereo not given) | -11 | -0.2 | -1% | 4 | -23
CCc1cc(S(N)(=O)=O)cc(CC)c1NC(C)=O | / | 1.4 | -5% | -3 | /
